# NPYLR7 agonist: agonists of mosquito NPYLR7 receptor, primary screen, cell-based, Aedes aegypti, calcium fluorescence, mosquito biting behavior; Aedes aegypti neuropeptide Y-like receptor 7 (NPYLR7); HEK293T NPYLR7/Galpha15, GCaMP6s calcium fluorescence; activation, % at 10 µM; actives 0.15% (n = 270,000); AID 1259423, 2018; in the data active means activation above about 40%;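 further: 0% = vehicle and 100% = reference agonist at the receptor; some compounds past the cut are filed as inactive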
# NPYLR7 agonist max-min: second read-out of NPYLR7 agonist, no call of its own (marks repeat the call); activation, %; measured here: Max-Min RFU normalised activation; some inactives read as strong as hits;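 span of the calcium signal over five minutes; 0% = vehicle and 100% = native peptide agonist; compound fluorescence can raise it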
# * = called active by the depositor. Not all compounds are listed, so the mix of outcomes need not match the whole.
cpd	SMILES	NPYLR7 agonist	NPYLR7 agonist max-min
1	CCOC(=O)c1cc(-c2ccc(OC)cc2)n(-c2ccc(C(=O)N3CCCCC3CC)cc2)n1 (stereo unspecified)	-2	-2
2	COc1ccc(-n2cccn2)c(C2CC(=O)Nc3cc(O)c(C)cc32)c1 (stereo unspecified)	2	5
3	Cc1nc(Nc2ccc3c(c2)OCCO3)c2cnn(CCc3ccccc3)c2n1	7	3
4	CS(=O)(=O)c1ccc(-c2csc(NCc3ccc(F)cc3)n2)cc1	6	6
5	CN(CC(=O)Nc1cccc(F)c1)C(=O)c1cncn1-c1ccccc1	3	6
6	O=C(CN(C(=O)Nc1c(Cl)cccc1Cl)C1CC1)N(CCc1c[nH]c2ccccc12)Cc1ccc(Cl)c(Cl)c1	-12	-14
7	CC(C)(c1ccccc1)c1nnc(NC(=O)C2CCC(=O)NC2)s1 (stereo unspecified)	3	60
8	Cc1ccc(S(=O)(=O)NC2=NCN(C3CC3)CN2)cc1	-7	-9
9	O=C(CSc1nnc2n1CCCCC2)Nc1ccnn1C1CCCC1	-1	5
10	Cc1cc(C)c2nc(C(F)(F)F)nc(N3CCN(CCO)CC3)c2c1	-2	17
11	CC(C)(C)OC(=O)N1CCCC(C(=O)NC2CCCN(c3ncnc4sccc34)C2)C1 (stereo unspecified)	-5	-4
12	Clc1ccc(C2=Nn3c(nnc3C3CCCCC3)SC2)c(Cl)c1	0	1
13	Cc1ccc(-n2ncc3c(=O)n(NC(=O)C(C)C)cnc32)cc1	7	4
14	COC(=O)c1cc(CNC(C)c2ccc(Cl)c(Cl)c2)c[nH]1 (stereo unspecified)	6	-9
15	CSCCC1NC(=O)c2ccccc2N(CC(=O)NN(C)c2ccccc2)C1=O (stereo unspecified)	0	14
16	N#Cc1cccc(OC2CC3CCC(C2)N3C(=O)c2ccc(CSc3nc4ccc([N+](=O)[O-])cc4s3)cc2)c1 (stereo unspecified)	16	16
17	CN(C)C(CNC(=O)Cc1cccc2ccccc12)c1ccsc1 (stereo unspecified)	2	-9
18	c1ccc(-n2c(SCc3nc4ccccc4o3)nnc2C2CC2)cc1	-2	-5
19	Cc1ccc(-n2c(C)nnc2SCc2ccc(C(=O)N3CCOCC3)cc2)cc1	-3	-3
20	O=c1c(Cl)c(Cl)cnn1-c1ccc(N2CCOC(c3ccccc3)C2)c(Cl)c1 (stereo unspecified)	5	1
21	O=C(COc1cnc2ccccc2n1)Nc1ccc(Br)cc1F	1	1
22	Cn1c(=O)[nH]c(=O)c2c1nc(NC1CCCC1)n2Cc1ccccc1	-7	-6
23	CC1CCCN(S(=O)(=O)c2ccc(C(=O)NNc3nc4cc5c(cc4s3)OCO5)cc2)C1 (stereo unspecified)	2	0
24	Cc1nccn1-c1cc(NCCNC(=O)Nc2ccccc2)ncn1	-14	-21
25	O=C(NCC(=O)N1CCCC1)c1ccc(S(=O)(=O)Nc2ccc(Cl)cc2)cc1	10	6

# (continued)
cpd	SMILES	NPYLR7 agonist	NPYLR7 agonist max-min
26	COc1cc(C)c(Cl)c(C)c1S(=O)(=O)NCc1ccc2c(c1)OCO2	5	0
27	CN1CCN(c2ncccc2CNC(=O)c2cc(=O)c3ccccc3[nH]2)CC1	-1	-3
28	O=C1C(C(c2ccc(F)cc2)N2CCC3(CC2)OCCO3)Sc2ncnn21 (stereo unspecified)	2	2
29	Oc1[nH]c2c(Br)cc(F)cc2c1N=NC(=S)NCC1CCCO1 (stereo unspecified)	-12	-19
30	CCCN(CCC)c1cccc(C(=O)O)n1	0	-2
31	CC(=CC(=O)C(F)(F)F)N1CCN(C(=O)c2ccco2)CC1	-2	-5
32	CCCCNC(=O)C1(C)CCCCN1C(=O)c1cc(F)ccc1C (stereo unspecified)	6	2
33	CC1(C)CC(=O)C(Sc2ncnc3nc[nH]c23)C(=O)C1	4	3
34	CC(C)N1CCC(N2CCN(Cc3ccc(O)c(Cl)c3)CC2CCO)CC1 (stereo unspecified)	4	2
35	CCOc1ccccc1C1c2c(-c3ccccc3)noc2N=C(N)C1C#N (stereo unspecified)	-1	-3
36	OC(COc1ccccc1)CN(Cc1cccc(C(F)(F)F)c1)CC1CC(c2ccc(F)cc2)=NO1 (stereo unspecified)	-3	-2
37	CCCNC(=O)CSc1nnc(SCc2ccccn2)s1	5	6
38	CN(C)C(=N)c1n[nH]nc1SCc1ccc(Cl)c(Cl)c1	-12	-17
39	N#Cc1ccc(OCCOc2ccc(F)cc2F)cc1	9	6
40	CC(OC(=O)CN1C(=O)CNC1=O)C(=O)NC1CCCC1 (stereo unspecified)	1	-2
41	COc1ccc(-c2cc(C3CC3)nc(SCC(=O)c3ccccc3)c2C#N)cc1	-4	-7
42	COC(=O)C1=C(C)NC(=O)NC1c1ccccc1[N+](=O)[O-] (stereo unspecified)	-1	-3
43	CCN1CCN(S(=O)(=O)N2CCOC3(CNCCOC3)C2)CC1 (stereo unspecified)	-9	-14
44	O=C1OC(c2ccccc2F)=N/C1=C\c1coc2c(Cl)cc(Cl)cc2c1=O	-2	-6
45	COCc1c(Br)c(C)nc(OCC(=O)N/N=C\c2cc(I)c(OCc3ccccc3)c(OC)c2)c1C#N	4	4
46	Nc1nnc(CCn2cnc3sc4c(c3c2=O)CCNC4)s1	9	4
47	FC(F)n1ccnc1CNc1cc(Cl)ccc1Cl	-4	-6
48	Cn1cc(/C=C/C(=O)N2CCCC(C(=O)c3ccc4c5c(cccc35)CC4)C2)cn1 (stereo unspecified)	2	-12
49	CCc1ccc(-c2nccn2-c2ccc(OC)nc2)nc1	21	15
50	CCOc1ccc(-n2nnnc2CNS(=O)(=O)c2ccc(OC)c(C)c2)cc1	0	-3

# (more compounds)
cpd	SMILES	NPYLR7 agonist	NPYLR7 agonist max-min
51	Cc1cc(Br)c2[nH]c(=O)cc(C(=O)OC(C)C)c2c1	5	10
52	CC1(c2ccco2)NC(=O)N(Cc2nc(-c3cccs3)no2)C1=O (stereo unspecified)	10	5
53	COC(=O)c1ccccc1NC(=O)Cn1ncn2nc(-c3ccc(F)cc3)cc2c1=O	-9	-17
54	CCN(CC)CCN(C(=O)c1cc(C)nn1C)c1nc2c(F)cccc2s1	1	-1
55	CN1CCN(c2nc3nonc3nc2N2CCN(C)CC2)CC1	-3	-2
56	CCc1noc(C)c1C(=O)Nc1ccc(Cl)cc1F	15	7
57	C=CCn1c(C2COc3ccccc3O2)n[nH]c1=S (stereo unspecified)	9	9
58	CCCOc1ccc(C(=O)Oc2cccc3ccc(C)nc23)cc1	-8	-12
59	CC(C)Oc1ccccc1CNC(=O)N(C)C(C)CS(C)(=O)=O (stereo unspecified)	-1	13
60	C/C(=N/OCCCN(C)C)c1ccc(SC(C)C)cc1	2	-1
61	CC1CCC(NC(=O)NCc2ccc(-n3cccn3)nc2)CC1 (stereo unspecified)	-8	-10
62	CCCCc1ccc(-c2ccc(-n3cncc3C(=O)NCc3ccc(OC(F)(F)F)cc3)cc2)cc1	23	27
63	C#CC(C)(O)CC1(C)OCCO1 (stereo unspecified)	-14	-20
64	COCCN(Cc1csc(COc2c(OC)cccc2OC)n1)C(=O)COC	23	34
65	COCCS(=O)(=O)NCC(=O)Nc1c(C)cc(C)cc1C	3	2
66	COC(=O)CCC(=O)NC1CC(=O)N(CC2CCCCC2)C1 (stereo unspecified)	-1	-7
67	Cn1c2ccccc2c2cc(CC(=O)N3C[C@H]4C[C@H](O)[C@@H](O)C[C@H]4C3)ccc21	3	0
68	CCOc1ccc(N(C)Cc2nnc(C)o2)cc1	12	7
69	CCOC(=O)N1CCN(Cc2cn[nH]c2-c2ccc(OC)c(F)c2)CC1	-3	-6
70	CCC(=O)NCCNc1cc(-n2ccnc2C)nc(C)n1	-15	-20
71	Nc1nc(Nc2ccc(C(=O)Nc3ccc(Cl)cc3)cc2)cc(N2CCOCC2)n1	2	-1
72	CONS(=O)(=O)c1ccc(C(=O)NC2CC2c2cccc(F)c2)cc1 (stereo unspecified)	3	-3
73	O=C(NC1CCCCCC1)c1c(O)c2c([nH]c1=O)CCCC2	6	4
74	CC(=O)N[C@@H](CC(=O)O)C(=O)O	-3	-8
75	CCCCc1cnc2c(c1SCc1cccnc1)c(=O)n(C)c(=O)n2C	2	6

# Four structures already listed, sorted by count of non-hydrogen atoms, lowest first:
cpd	SMILES	NPYLR7 agonist	NPYLR7 agonist max-min
68	CCOc1ccc(N(C)Cc2nnc(C)o2)cc1	12	7
70	CCC(=O)NCCNc1cc(-n2ccnc2C)nc(C)n1	-15	-20
53	COC(=O)c1ccccc1NC(=O)Cn1ncn2nc(-c3ccc(F)cc3)cc2c1=O	-9	-17
62	CCCCc1ccc(-c2ccc(-n3cncc3C(=O)NCc3ccc(OC(F)(F)F)cc3)cc2)cc1	23	27

# (further entries)
cpd	SMILES	NPYLR7 agonist	NPYLR7 agonist max-min
76	COc1cc(C2NC(=O)NC3=C2C(=O)CCC3)cc(OC)c1OC (stereo unspecified)	3	-7
77	CCC1CN(C(=O)Cn2nc(C)ccc2=O)CCC(=O)N1Cc1ccccc1 (stereo unspecified)	1	0
78	Nc1ccn(C23CC4CC(CC(C4)C2)C3)n1	1	-1
79	COc1ccc(CCN(Cc2ccc(C)cc2)CC2CCN(C)CC2)cc1	-6	-10
80	Cc1c(I)cccc1C(=O)NCCC(N)=O	1	0
81	CNCC(=O)N[C@@H]1C=C(C(=O)NCC(N)=O)C[C@@H](O)[C@@H]1O	-10	-19
82	O=C1c2cc(Cl)c(Cl)cc2C(=O)N1Cc1cc(=O)oc2ccc3ccccc3c12	-1	-2
83	Cn1c2nc3ccccc3nc2c2c(=O)n(C3CCCCC3)cnc21	0	-1
84	COc1ccc(/C=N\NC(=O)CSc2nnc(-c3ccccc3)n2-c2ccccc2)c(OC)c1	-5	-13
85	CCC(NC(=O)Cn1cccnc1=O)c1ccc(F)cc1 (stereo unspecified)	23	17
86	CCCn1c(=O)c2c(nc3n2CCN3c2cccc(C)c2C)n(C)c1=O	-3	-4
87	O=c1ccc(C(F)(F)F)c[nH]1	6	2
88	O=C(O)c1cccc(C(=O)N2C[C@@H]3C[C@H](C2)c2ccc(NS(=O)(=O)c4cccc(C(F)(F)F)c4)c(=O)n2C3)c1	-7	-15
89	COc1ccc(CC2CCCN2CC(=O)NC2CCN(C(C)=O)CC2)cc1 (stereo unspecified)	6	2
90	COC(=O)c1ccc(COC(CN2CCN(C(=O)c3oc4ccccc4c3C)CC2)c2ccc(Cl)cc2)cc1 (stereo unspecified)	3	-1
91	O=c1oc2ccccc2cc1-c1nnc(Nc2ccccc2)s1	0	-4
92	COc1ccc(S(=O)(=O)N2CCN(c3ccc(NC(=O)c4ccco4)cn3)CC2)c(OC)c1	-2	-6
93	CCOCCCN(CC(=O)N(CCc1ccccc1)Cc1ccc(C)o1)C(=O)c1cccs1	19	14
94	CC(=O)N1CCN(c2cc3c(cc2F)c(=O)c(C(=O)Nc2nccs2)cn3C2CC2)CC1	5	13
95	CC(=O)c1ccc2c(c1)N(CCCN1CCC(CCO)CC1)c1ccccc1S2	-13	-20
96	Cc1ccccc1N1CCN(C2CCCN(Cc3nc(-c4ccccc4)cs3)C2)CC1 (stereo unspecified)	5	3
97	CS(=O)(=O)c1nnnn1-c1ccccc1Cl	9	7
98	Cc1ccc(-c2ccnc(N(C)CC3CCCO3)n2)c(C)n1 (stereo unspecified)	-1	18
99	Cc1ccc(C(=O)OCC(=O)NCC(C)C)c(C)c1	-2	-9
100	CS(=O)(=O)N1CCCc2cc(C(=O)COc3cccc(Cl)c3)ccc21	3	2

# Five of the compounds above, in transposed form.
80: Cc1c(I)cccc1C(=O)NCCC(N)=O
81: CNCC(=O)N[C@@H]1C=C(C(=O)NCC(N)=O)C[C@@H](O)[C@@H]1O
82: O=C1c2cc(Cl)c(Cl)cc2C(=O)N1Cc1cc(=O)oc2ccc3ccccc3c12
83: Cn1c2nc3ccccc3nc2c2c(=O)n(C3CCCCC3)cnc21
84: COc1ccc(/C=N\NC(=O)CSc2nnc(-c3ccccc3)n2-c2ccccc2)c(OC)c1

Compound | 80 | 81 | 82 | 83 | 84
NPYLR7 agonist | 1 | -10 | -1 | 0 | -5
NPYLR7 agonist max-min | 0 | -19 | -2 | -1 | -13

# Next structures.
cpd	SMILES	NPYLR7 agonist	NPYLR7 agonist max-min
101	Cc1noc(-c2ccc(NC(=O)C(C)(C)C)cc2)n1	-4	-4
102	CCC1=NN(C(=O)c2cccc(C)c2O)C(O)(C(F)(F)F)C1 (stereo unspecified)	-2	-3
103	CCCCC(=O)NCCc1cc2c(OC)ccc(OC)c2[nH]c1=O	1	20
104	Cc1ccc(C(NC(=O)CCc2nc3cc(S(=O)(=O)N4CCOCC4)ccc3n2C)C2CC2)cc1 (stereo unspecified)	18	8
105	COc1ccccc1NC(=O)N(CCN1CCOCC1)CC(=O)N(Cc1ccc2c(c1)OCO2)Cc1ccco1	-10	-9
106	Cc1ccc(N2CC(C(=O)Nc3cc(-c4n[nH]c(C)n4)ccc3C)CC2=O)cc1 (stereo unspecified)	3	3
107	CCC(Nc1ccc(OC)c(CO)c1)c1ccccc1 (stereo unspecified)	1	0
108	NS(=O)(=O)c1cc2c(cc1Cl)NC(CC1CCCC1)NS2(=O)=O (stereo unspecified)	13	0
109	NC(=O)NC(CC(=O)N1CCc2sccc2C1)c1cccc(Br)c1 (stereo unspecified)	0	0
110	CCC(=O)N1CCCC1(C)C(=O)Nc1cccc(Oc2ccccc2)c1 (stereo unspecified)	5	1
111	Cc1ccccc1C(=O)N1CCC(n2nc(C(C)C)cc2C(C)C)CC1	3	-1
112	Fc1ccccc1Cn1c2[n+](c3ccc(C(F)(F)F)cc31)CCCCC2	25	13
113	C=C(C)COc1cccc(CNCc2cnc(C)cn2)c1	6	9
114	Cn1cc(S(=O)(=O)NC(c2ccccc2)c2ccccc2)c(=O)n(C)c1=O	0	-2
115	CC(C)=CCc1c(O)ccc(C(=O)Cc2ccccc2)c1O	2	9
116	CCCCCCCC1=C(N)c2ccc(OCC(F)(F)F)cc2S1=O (stereo unspecified)	0	43
117	CC(NC(Cc1ccc(Cl)cc1)c1ccccc1)C(=O)NC(N)=O (stereo unspecified)	-1	-2
118	CCc1nc2ccc(C(=O)NCCCn3ccnc3)cn2c1N(C)CCN1CCOCC1	21	19
